CapD inh – blocks the Bacillus anthracis CapD enzyme. purified CapD enzyme, fluorescence intensity read-out; active compounds read low; some hits fall short of the stated cut. z-score (concentration not given with the values). 140,000 compounds, 0.23% hits;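 active means z-score under -4 in either of two replicates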;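 further: stock transfer was 100 nL into about 40 µL; score is relative to mean and spread of the plate; one replicate is shown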
AID504770 – E. coli YBA685 growth inhibition, screen for V. cholerae RctB inhibitors | E. coli YBA685 rctB-dependent plasmid, OD600 growth, 3 h; active compounds read low | z-score (concentration not given with the values) | 130,000 compounds, 0.27% hits | AID 504770;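 active means z-score under -2 on both plates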;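 further: wells of about 30 µL received 100 nL stock; score is relative to mean and SD of the test wells; the first replicate is given; strong numbers were not always called active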
An asterisk follows results filed as active; i = inactive; . = no result given.

SMILES | CapD inh | AID504770
O=C(CCn1c(SCC(=O)NCc2ccccc2)nc2cc3c(cc2c1=O)OCO3)NCc1ccc2c(c1)OCO2 | 0.33 | 2
COc1ccc(C(=O)Nc2c(N)nc(SCC(=O)NC3CCCCC3)[nH]c2=O)cc1 | . | 1.1
O=C1CC(C(=O)NC2CCCCC2)C(c2ccccc2)O1 (stereo not given) | -0.23 | -0.05
COc1cccc(OC)c1C(=O)N=c1sc2cc(S(C)(=O)=O)ccc2n1C | 0.15 | -0.85
O=C(c1ccc(Nc2nc3ccccc3n3nnnc23)cc1)N1CCc2ccccc2C1 | 1.5 | -0.15
COc1nc(C)nc(NC(=O)NN)n1 | . | -1.1
COc1ccc(Br)c(C(=O)NNC(=O)c2ccccc2N)c1 | 11 | .
COC(=O)Cc1[nH]n(-c2ccc(F)cc2)c(=O)c1C(C)=NC1CC(C)(C)NC(C)(C)C1 | . | -0.55
CCCNC(=O)N1CCCc2ccccc21 | 1.1 | 1.8
CCOC(=O)Cc1csc(NC(=O)CSc2nnc(-c3ccc(F)cc3)o2)n1 | . | 2.1
COc1ccc(O)c(-c2cnc(=S)[nH]c2-c2cc(OC)ccc2OC)c1 | -1.2 | -0.1
COC(=O)c1ccc(S(=O)(=O)N(C)C2CCCCC2)o1 | -0.1 | 1.3
O=C(CSc1nnc2c(n1)-c1cccc3cccc-2c13)Nc1ccccc1[N+](=O)[O-] | 1.6 | .
NC(=O)CC12CC3CC(C1)CC(CC(N)=O)(C3)C2 | 0.52 | 1.4
CN1C(=O)C2(C(C#N)=C(N)N(c3ccccc3)C3=C2C(=O)CC(C)(C)C3)c2ccccc21 (stereo not given) | . | 2.1
CCOC(=O)COc1c(Br)cc(Br)c2cccnc12 | 1.1 | 0.65
O=c1[nH]oc(O)c1-c1ccccc1 | 1.4 | -0.05
Clc1nc(Cl)nc(N2CCCCC2)n1 | . | -0.2
COc1ccc(C(C)NC(=O)c2ccccc2)cc1 (stereo not given) | 0.69 | 0
COc1ccc(OC)c(NC(=O)COc2coc(CN3CCc4ccccc43)cc2=O)c1 | . | 1.6
Cc1cc(OCc2c(C)c(C)c(C)c(C)c2C)c2c(Cl)ccc(C)c2n1 | 0.71 | .
Cc1cc(-n2c(C)cc(C(=O)COC(=O)C34CC5CC(CC(O)(C5)C3)C4)c2C)no1 | . | 0.05
CCOC(=O)N1CCN(C2CC(=O)N(CCc3ccc(OC)c(OC)c3)C2=O)CC1 (stereo not given) | -0.94 | -1
CCN(CC(=O)NC1CCS(=O)(=O)C1)Cc1nc2c(Br)cc(Br)cc2c(=O)[nH]1 (stereo not given) | . | 0.4
Cc1cccc(NS(=O)(=O)c2cc3c(cc2C)n(C)c(=O)c(=O)n3C)c1 | 0.66 | 1
Cc1ccc(NC(=O)COc2ccc3ccccc3c2Br)cc1F | 0.3 | 0.35
Cc1c(C(=O)N(C)C2CCN(C)CC2)cnn1-c1ccc(Cl)cc1 | -0.23 | 0.15
COc1ccc(-c2nc3scc(-c4ccccc4)n3n2)cc1 | 0.085 | -0.95
COc1ccc(C(=O)c2nc3ccccc3n2C(C)C)cc1OC | -0.45 | -4.6*
CS(=O)(=O)N1CCN(c2ccccc2NC(=S)NC(=O)c2ccc(-c3cccc(Cl)c3)o2)CC1 | -0.35 | 0.05
CC(C)C(=O)N(Cc1ccccc1)c1ccccn1 | -0.14 | -0.55
O=C(CCN1C(=O)/C(=C/c2ccc3c(c2)OCO3)SC1=S)N1CCC(Cc2ccccc2)CC1 | 0.075 | .
O=C(COc1ccc(S(=O)(=O)NCc2ccccc2)cc1)NCc1ccco1 | . | 0.05
CCOC(=O)c1noc(Oc2ccc(Cl)cc2Cl)n1 | -0.11 | -0.95
COC(=O)c1c(CNC2CCCCC2)n(C)c2cc(Br)c(OC)cc12 | -0.51 | .
O=C1CC(c2ccccc2)CN1C(=O)c1ccccc1 (stereo not given) | 0.35 | 0.15
O=C(CC1(O)C(=O)Nc2ccc(Br)cc21)c1cccs1 (stereo not given) | 0.015 | .
COCCNC(=O)CN1CCN(Cc2cc(C)n(CCc3ccc(Cl)cc3)c2C)CC1 | . | -0.35
S=C1SCN(Cc2ccccn2)CN1Cc1ccco1 | . | -2
CC1CC(N(CCC#N)S(=O)(=O)c2ccc(Br)cc2)CC(C)(C)C1 (stereo not given) | 0.1 | -0.2

Copied from the entries so far for reference:
SMILES | CapD inh | AID504770
CCOC(=O)COc1c(Br)cc(Br)c2cccnc12 | 1.1 | 0.65
O=c1[nH]oc(O)c1-c1ccccc1 | 1.4 | -0.05
Clc1nc(Cl)nc(N2CCCCC2)n1 | . | -0.2
COc1ccc(C(C)NC(=O)c2ccccc2)cc1 (stereo not given) | 0.69 | 0
COc1ccc(OC)c(NC(=O)COc2coc(CN3CCc4ccccc43)cc2=O)c1 | . | 1.6
Cc1cc(OCc2c(C)c(C)c(C)c(C)c2C)c2c(Cl)ccc(C)c2n1 | 0.71 | .
Cc1cc(-n2c(C)cc(C(=O)COC(=O)C34CC5CC(CC(O)(C5)C3)C4)c2C)no1 | . | 0.05
CCOC(=O)N1CCN(C2CC(=O)N(CCc3ccc(OC)c(OC)c3)C2=O)CC1 (stereo not given) | -0.94 | -1
CCN(CC(=O)NC1CCS(=O)(=O)C1)Cc1nc2c(Br)cc(Br)cc2c(=O)[nH]1 (stereo not given) | . | 0.4
Cc1cccc(NS(=O)(=O)c2cc3c(cc2C)n(C)c(=O)c(=O)n3C)c1 | 0.66 | 1
Cc1ccc(NC(=O)COc2ccc3ccccc3c2Br)cc1F | 0.3 | 0.35
Cc1c(C(=O)N(C)C2CCN(C)CC2)cnn1-c1ccc(Cl)cc1 | -0.23 | 0.15
COc1ccc(-c2nc3scc(-c4ccccc4)n3n2)cc1 | 0.085 | -0.95
COc1ccc(C(=O)c2nc3ccccc3n2C(C)C)cc1OC | -0.45 | -4.6*
CS(=O)(=O)N1CCN(c2ccccc2NC(=S)NC(=O)c2ccc(-c3cccc(Cl)c3)o2)CC1 | -0.35 | 0.05
CC(C)C(=O)N(Cc1ccccc1)c1ccccn1 | -0.14 | -0.55
O=C(CCN1C(=O)/C(=C/c2ccc3c(c2)OCO3)SC1=S)N1CCC(Cc2ccccc2)CC1 | 0.075 | .
O=C(COc1ccc(S(=O)(=O)NCc2ccccc2)cc1)NCc1ccco1 | . | 0.05
CCOC(=O)c1noc(Oc2ccc(Cl)cc2Cl)n1 | -0.11 | -0.95
COC(=O)c1c(CNC2CCCCC2)n(C)c2cc(Br)c(OC)cc12 | -0.51 | .
O=C1CC(c2ccccc2)CN1C(=O)c1ccccc1 (stereo not given) | 0.35 | 0.15
O=C(CC1(O)C(=O)Nc2ccc(Br)cc21)c1cccs1 (stereo not given) | 0.015 | .
COCCNC(=O)CN1CCN(Cc2cc(C)n(CCc3ccc(Cl)cc3)c2C)CC1 | . | -0.35

Next entries follow.
SMILES | CapD inh | AID504770
CCC(=O)N1N=C2C(C)CN(C)C(C)C2C1c1ccco1 (stereo not given) | 1.6 | -0.4
NC(=O)c1ccc(NC(=O)CC2Sc3ccccc3NC2=O)cc1 (stereo not given) | . | 0
C=CCOc1ccc(C(=O)Nc2ccccn2)cc1 | -0.08 | -0.7
O=C(Nc1ccc(C(F)(F)F)cc1)c1ccc2ncsc2c1 | 1 | 0.3
C=CC(C)c1c(CCC)nc(-c2ccccn2)[nH]c1=O (stereo not given) | -0.61 | 0.15
C=CCn1c(C(C)Oc2cccc(C)c2)nc2ccccc21 (stereo not given) | -0.34 | -0.1
Cc1cc(/C=C(/C#N)C(=O)NC2CCCCC2)c(C)n1-c1ccc(I)cc1 | 0.23 | -0.5
Cc1cc2nnc(SCC(=O)N3CCCC3)n2c2ccccc12 | 3.5 | 0.65
CCOC(=O)c1c2c(n(-c3ccccc3)c1N)OC(=N)C(C#N)C2c1ccc(Br)cc1 (stereo not given) | . | -0.2
CC1(C)C(C=C(Cl)Cl)C1C(=O)Nc1ccccc1 (stereo not given) | -0.62 | 0.15
O=C(c1cc2ncc(Br)cn2n1)N1CCCCC1 | . | -0.75
Cc1cccc(Nc2ncnc(N)n2)c1C | 0.29 | -0.4
COc1ccc(C2C(C(=O)Nc3ccc(Br)cn3)=C(C)NC3=C2C(=O)CCC3)c(OC)c1 (stereo not given) | 11 | .
CCOC(=O)c1c(C2CC2)csc1NC(=O)COn1nnc2ccccc21 | . | -0.3
COc1cc(C=C2C(=O)NC(=O)NC2=O)ccc1OCc1ccc(C(=O)O)cc1 | 0.84 | .
Cn1cnnc1SCc1cc(=O)c(OCC(=O)N2CCc3ccccc32)co1 | . | -1.3
COc1ccc(-c2cc(C(F)(F)F)n3ncc(C(=O)Nc4cccc(C(C)=O)c4)c3n2)cc1OC | -0.23 | .
Clc1cccc(OCCN2CCCC2)c1 | -0.34 | 1.7
N#Cc1c(CCl)cc(=O)n2c1sc1ccccc12 | -0.34 | 2.5
Cc1cc(C)c(C)c(Cn2c(-c3ccco3)nc3ccccc32)c1C | 9.6 | -0.1
O=C(CCN1C(=O)C2C3C=CC(C3)C2C1=O)N1CCN(c2ccccc2)CC1 (stereo not given) | -0.2 | -0.15
CC(C)c1ccc(C2NC(=S)NC3=C2C(=O)CCC3)cc1 (stereo not given) | -1.8 | 0.1
O=C1Nc2ccccc2S/C1=C/Nc1cccc(C(F)(F)F)c1 | 0.045 | 0.3
CCOC(=O)C1=C(c2ccccc2)NC(SCC)=C(C#N)C1c1cccnc1 (stereo not given) | 0.25 | .
CCOC(=O)N1CCC(NC(=O)c2cc3ccc4cccnc4c3[nH]2)CC1 | 0.41 | 0.1
CCCc1ccc(NC(=S)OC)cc1 | -0.4 | -0.1
Cc1cc(C)c(NC(=O)CSc2cc(C(F)(F)F)cc(C(F)(F)F)c2)c(C)c1 | 0.41 | .
CCCNC(=O)Cn1nc(C)c2c(C)n(-c3ccc(C)cc3)nc2c1=O | 0.38 | 0.45
O=C(N=C1SCC(=O)N1c1ccccc1)c1ccco1 | . | -0.45
C=CCn1c(SCC(=O)Nc2cc(C)on2)nnc1C1COc2ccccc2O1 (stereo not given) | . | 0.05
Cc1ccc(NC(=S)C(C#N)C(=O)N2CCOCC2)c(C)c1 (stereo not given) | -0.7 | .
COc1cccc(C(=O)Nc2sc3c(c2C(N)=O)CCC3)c1 | 1.8 | 0.25
Cc1ccc(C)c2c1sc(=NC(=O)c1ccc(C#N)cc1)n2C | . | -0.3
Cc1ccc(-c2nnc3n(CC(C)C)c(=O)c4ccccc4n23)s1 | -0.01 | 0.55
O=C(CSC1CCS(=O)(=O)C1)NCC(=O)c1ccccc1 (stereo not given) | . | -0.6
O=C(Nc1ccc(N2CCOCC2)c2nonc12)c1cc(-c2cccnc2)nc2ccc(Cl)cc12 | -0.07 | 0.25
CC(C)CCNC(=O)Cn1cccc1C(=O)c1ccccc1 | -0.34 | -0.85
N#CC1=C(N)Oc2c(C=Nc3ccccc3)ccc(O)c2[C@H]1c1ccccc1[N+](=O)[O-] | 2.9 | .
O=C(CC1CC2CCC1C2)Nc1ccccc1I (stereo not given) | 8.6 | -0.15
CN(C)CCN(C(=O)Cc1ccccc1)c1nc2cc3c(cc2s1)OCCO3 | -1 | -2.3*
Cc1ccc(S(=O)(=O)N(CC(=O)N2CCC(C(N)=O)CC2)c2ccccc2F)cc1 | . | 0.4
Cc1ccc2nsnc2c1NC(=O)c1ccccc1 | -0.24 | -0.85
Cc1ccc(-n2cnc3cc(NC(=O)c4ccccc4)ccc32)cc1 | 3.4 | -0.55
O=C(Nc1cc(C(F)(F)F)ccc1N1CCCC1)Nc1cccc2ccccc12 | 2.7 | -1.4
CCCc1nc2ccccc2n1CC(=O)C(C)(C)C | 0.055 | 0.15
O=C(CN1C2=NCCN2c2ccccc21)c1ccc(Br)cc1 | -0.5 | .
NC(=O)c1cccc(-c2nn[nH]n2)c1 | . | 1.8
NC(=O)CC1SC(=O)N=C1N (stereo not given) | -0.04 | -0.6
CC(C)(C)c1cc(C(C)(C)C)n(-c2ccc(C(=O)NC3CCCCC3)cc2)n1 | -0.18 | .
C#CCOc1c(-c2nc(OC)cc(OC)n2)sc2ccccc12 | 3.5 | .
CN(C)S(=O)(=O)NCc1ccc2c(c1)OCO2 | 0.3 | 0.8
O=C1c2ccccc2C(=O)N1CN1CCOCC1 | . | -1.3
O=C(Nc1cccc(C(F)(F)F)c1)c1ccc(F)c(S(=O)(=O)N2CCc3ccccc32)c1 | -0.29 | .
O=C1c2ccccc2C(=O)N1CCC1=CCCCC1 | 0.27 | -0.4
O=C(NCCc1nc2ccccc2[nH]1)C1CCCCC1 | 1.1 | -0.85
CCOC(=O)C1=C(N)n2c(s/c(=C/c3ccco3)c2=O)=C(C(=O)OCC)C1c1ccco1 (stereo not given) | -4.2* | -0.15
COc1ccc(CCNC(=O)CN(c2cc(Cl)ccc2OC)S(=O)(=O)c2ccccc2)cc1OC | -0.44 | .
CN(C)c1cccc2c(C#N)ccc(N(C)C)c12 | -0.71 | -0.05
Cc1cc(=O)n2[nH]c(C)cc2n1 | 4.1 | .
S=C(NCc1ccco1)Nc1cccnc1 | -0.93 | .

Some of these compounds in order of formula weight, lowest first.
SMILES | CapD inh | AID504770
O=C1c2ccccc2C(=O)N1CN1CCOCC1 | . | -1.3
Cc1ccc2nsnc2c1NC(=O)c1ccccc1 | -0.24 | -0.85
O=C(Nc1cc(C(F)(F)F)ccc1N1CCCC1)Nc1cccc2ccccc12 | 2.7 | -1.4

More entries follow.
SMILES | CapD inh | AID504770
CC(C)(C)NCc1ccc(-c2ccccc2)o1 | . | 0.05
CCOC(=O)c1c(-c2ccccc2)oc2ccc(O)c(CN3CCOCC3)c12 | i | 0.6
CCOc1ccccc1CNC(=O)OCc1c(F)cccc1Cl | 0.72 | .
CCCC(CCC)C(=O)O | -0.41 | 0.2

Screening results from PubChem.

This is a random part of the collection; 0.39% or so of the library scored in one or more.
